# Source: PubChem BioAssay (several laboratories)
# Arbovirus inh: antivirals against arbovirus infection, primary screen, cell-based, full library, 10K replicate subset | 200,000 tested, 0.37% active | arbovirus infection cell-based antiviral screen | inhibition, % at 10 µM | AID 1251, 2008;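 active = inhibition from about 30%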;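 note: bluetongue infection of BSR cells; cell survival read as ATP light after 72 h; 0% = infected wells without compound and 100% = uninfected wells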
# RecA intein inh: Mtb RecA intein splicing inhibitors, primary screen, biochemical, fluorescence, HTS; AID 2221, 2009; inhibition, %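 (about 9 µM by stock and volumes)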; cell-free RecA intein splicing; 290,000 tested, 0.75% active; Protein RecA (Mycobacterium tuberculosis (strain ATCC 25618 / H37Rv)), P9WHJ3; in the data active = inhibition above about 30%;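 note: 0% = vehicle wells and 100% = reference inhibitor control wells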
# Target sequence (P9WHJ3 whole entry, looked up): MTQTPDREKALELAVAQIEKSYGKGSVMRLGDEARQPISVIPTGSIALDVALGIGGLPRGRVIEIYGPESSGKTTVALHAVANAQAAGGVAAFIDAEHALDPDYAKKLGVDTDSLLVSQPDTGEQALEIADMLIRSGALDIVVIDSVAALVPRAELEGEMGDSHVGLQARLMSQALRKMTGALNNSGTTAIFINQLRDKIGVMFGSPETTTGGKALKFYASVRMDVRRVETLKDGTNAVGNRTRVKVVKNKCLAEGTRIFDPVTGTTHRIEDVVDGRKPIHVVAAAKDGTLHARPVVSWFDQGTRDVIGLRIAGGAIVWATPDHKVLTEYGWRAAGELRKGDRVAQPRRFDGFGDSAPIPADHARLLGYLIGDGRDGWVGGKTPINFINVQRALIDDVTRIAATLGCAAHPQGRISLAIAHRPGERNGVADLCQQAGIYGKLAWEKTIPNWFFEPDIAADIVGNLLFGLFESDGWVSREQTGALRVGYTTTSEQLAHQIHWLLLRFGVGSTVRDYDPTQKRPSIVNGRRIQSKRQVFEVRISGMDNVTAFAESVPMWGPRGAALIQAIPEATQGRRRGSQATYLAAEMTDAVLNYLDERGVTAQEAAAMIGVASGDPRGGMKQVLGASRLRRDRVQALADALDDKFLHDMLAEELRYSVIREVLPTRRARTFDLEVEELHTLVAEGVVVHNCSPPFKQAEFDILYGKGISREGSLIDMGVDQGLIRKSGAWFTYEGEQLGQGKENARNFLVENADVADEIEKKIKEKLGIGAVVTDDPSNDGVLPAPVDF
# Mtb betalactam: beta-lactam sensitization of Mtb H37Rv, H37Rv | 330,000 tested, 0.27% active | inhibition, % at 25 µM | M. tuberculosis H37Rv growth with meropenem, percent inhibition; hits of this screen are not shown here;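 active = about 74% or more and at least 40 points above the plate without the antibiotic, then above 30% in a dose series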;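 note: growth measured after seven days incubation then overnight dye step; 0% = bacteria only wells and 100% = bacteria with antibiotic; twin plates without the antibiotic show which effects depend on it; some results filed as inactive read as strong as hits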
# Mtb H37Rv: M. tuberculosis H37Rv growth inhibitors, H37Rv strain (AID 1626); 220,000 tested, 0.95% active; inhibition, % at 10 µM; hits with a dose series show IC50 in µM; M. tuberculosis H37Rv growth inhibition; higher % means a stronger effect;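 active = confirmed in a dose series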;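 note: bacteria incubated seven days before Alamar blue readout; 0% = bacteria only wells and 100% = bacteria with antibiotic wells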
# YopH inh: YopH tyrosine phosphatase inhibitors, primary screen, biochemical, fluorescence Ex485/Em525; YopH tyrosine phosphatase [Yersinia enterocolitica]; inhibition, %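 (about 10 µM by stock and volumes)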; 140,000 tested, 0.16% active; AID 898, 2007;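 active = inhibition of 50% or more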;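 note: controls were vehicle for no effect and minimum signal wells for full effect; inactives centre near -20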
# Arbovirus inh repeat: also measured in Arbovirus inh; calls as there; inhibition, %; measured here: 10K subset replicate screen; many hits read low in the repeat;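 first of two repeat runs on a subset; 0% = infected and 100% = uninfected wells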
# The depositor's hits bear a star; . = no result given.
SMILES,Arbovirus inh,RecA intein inh,Mtb betalactam,Mtb H37Rv,YopH inh,others
CC1=N/C(=C/c2ccc([N+](=O)[O-])cc2)C(=O)N1c1ccc(Cl)cc1Cl,-4.2,-4.9,5.6,-5.7%,4.5,
COc1ccc(CN(C(=O)c2ccco2)c2ccc(C)cc2)cc1OC,-2.3,3.8,-8.6,-1.6%,-42.6,
COc1cc(S(=O)(=O)N2CCN(c3ccccn3)CC2)ccc1Br,.,0.0,0.0,.,.,
CCN(CC)S(=O)(=O)c1ccc2c(c1)c(=O)c(C(=O)N1CCOCC1)cn2C,0.9,-3.2,5.2,-4.9%,-26.5,
CCN(CC)c1cc(C)c2cc(NC(=O)c3ccc(Br)o3)ccc2n1,-36.1,-2.0,37.5,3.9%,-1.4,
O=C(CN1C(=O)NC2(CCCC2)C1=O)N1CCN(S(=O)(=O)c2ccccc2)CC1,-5.2,0.0,-5.3,-0.6%,.,
O=C(N[C@H]1CC1c1ccccc1)c1ccc([N+](=O)[O-])cc1 (some centres not stated),.,-0.2,-0.9,0.0%,.,
CCS(=O)(=O)N1CCCC(C(=O)NCCN(C)Cc2ccccc2)C1 (configuration not stated),-1.6,-3.4,-4.8,-6.7%,-33.6,
CCCc1nc(-c2ccccc2)c(-c2ccc(OC)c(OC)c2)c(=O)[nH]1,.,0.5,2.5,.,.,
CCOC(=O)C1CCN(C(=O)COc2ccc(Br)cc2Br)CC1,7.1,3.9,0.6,4.5%,.,
COc1ccc(-c2cc(C(=O)NCc3cn(C)nc3C)c3ccccc3n2)cc1OC,-6.7,0.5,-2.6,6.2%,-17.6,
O=C(Nc1nnc(/C=C/c2ccccc2)s1)c1ccco1,.,-2.7,-7.9,-14.1%,.,
CCC12CN3CC(CC)(CN(C1)C3c1ccccc1Cl)C2O (configuration not stated),-0.2,1.7,-0.9,-3.7%,-39.6,
COC(=O)C1=C(C)NC(C)=C(C(=O)OC)C1C(=O)OCCN1C(=O)c2ccccc2C1=O,-0.5,0.6,5.2,4.4%,-10.9,
Cn1nnnc1SCC(=O)Nc1ccccc1[N+](=O)[O-],-0.9,4.1,.,-1.6%,-38.8,
O=c1[nH]c(CO)nc2c1oc1ccccc12,2.4,-1.8,-12.7,-8.1%,-21.9,
CC1=C(C(=O)OC2CCCC2)C(c2ccc(C)o2)C2=C(CC(c3cccs3)CC2=O)N1 (configuration not stated),-4.2,13.1,5.4,0.1%,-0.2,Arbovirus inh repeat=-8.7
O=C(Nc1cccc(C(F)(F)F)c1)C1CCCCC1,-0.2,-1.4,-9.1,-3.8%,-15.6,
Cc1cc(NC(=O)Nc2cccc(C(F)(F)F)c2)no1,4.2,-1.4,1.8,1.6%,0.9,
COc1ccc(NS(=O)(=O)c2cccc(C(=O)NNC(=O)CNC(=O)c3cccc(C)c3)c2)cc1,.,1.2,-9.8,.,.,
CCCN1CCN(S(=O)(=O)c2cc3c(cc2C)NC(=O)CO3)CC1,.,-1.6,-3.0,.,.,
OCCN1CCN(c2ncnc3sc4c(c23)CCCC4)CC1,.,-1.0,0.9,.,.,
CCNC(=O)NC(=O)C(C)Oc1ccc(C(=O)OC)cc1 (configuration not stated),3.2,-0.1,-11.6,-1.7%,-7.3,
O=C(Cc1ccc([N+](=O)[O-])cc1)N/N=C/c1ccccc1F,.,0.4,-2.7,.,.,
COc1ccc(Cn2ccnc2SCC(=O)NC2CCCCC2)cc1,.,0.3,-9.8,.,.,
O=S(=O)(Nc1ccccc1N1CCCCC1)c1ccc(F)cc1F,-3.5,.,-3.8,1.3%,.,
COc1ccc(C)cc1NC(=O)C(Sc1nnnn1C)c1ccccc1 (configuration not stated),-9.1,11.0,-2.7,-3.2%,.,
CCOC(=O)C1(CCc2ccccc2)CCN(C(=O)C(C)n2cncn2)CC1 (configuration not stated),9.1,-0.4,-4.3,-5.3%,.,
COc1cccc(CNC(=O)CCNS(=O)(=O)c2cccc3nsnc23)c1,0.3,-3.2,-1.6,0.6%,.,
O=C(OCc1cccc([N+](=O)[O-])c1)c1cccnc1Cl,.,-1.1,10.9,.,.,
CS(=O)(=O)NN1C(=O)c2ccccc2NC1c1cccc2cccnc12 (configuration not stated),-6.8,-4.7,9.8,9.2%,1.8,
O=C(C=C1SCCS1)/C=C/c1ccco1,3.5,3.3,20.4,.,-25.8,
Cn1c(CS(=O)Cc2c(Cl)cccc2Cl)nnc1SCc1c(Cl)cccc1Cl (configuration not stated),0.9,7.2,-4.6,-3.1%,-35.8,
COC(=O)c1ccc(OC(=O)CN2C(=O)c3ccccc3C2=O)cc1,.,6.5,1.2,.,.,
C/C=C/c1ccc(OCCCn2cncn2)c(OC)c1,-0.1,-2.7,-1.2,.,1.3,
CC(C)Cn1c(-c2ccco2)nc2c(c(=O)c3ccccc3n2C)c1=O,1.9,2.8,6.4,13.6%,-25.2,
Cn1c(=NC(=O)COc2ccccc2)sc2ccccc21,5.4,-0.9,-2.2,-4.5%,.,
COc1ccc(C(=O)C[n+]2cccc3cc(C)ccc32)cc1,.,-1.4,-2.7,.,.,
CCc1ccc(C(C)NC(=O)c2cccs2)cc1 (configuration not stated),.,2.8,1.8,.,.,
COc1cccc(O[C@@H]2O[C@@H]3COC(C)(C)O[C@H]3[C@H](O)[C@H]2NC(C)=O)c1,0.2,-0.1,2.0,-3.4%,-18.9,

# Two entries picked at random from those above, as already listed:
SMILES,Arbovirus inh,RecA intein inh,Mtb betalactam,Mtb H37Rv,YopH inh,others
CCNC(=O)NC(=O)C(C)Oc1ccc(C(=O)OC)cc1 (configuration not stated),3.2,-0.1,-11.6,-1.7%,-7.3,
CCOC(=O)C1(CCc2ccccc2)CCN(C(=O)C(C)n2cncn2)CC1 (configuration not stated),9.1,-0.4,-4.3,-5.3%,.,

# (next part)
SMILES,Arbovirus inh,RecA intein inh,Mtb betalactam,Mtb H37Rv,YopH inh,others
COc1cc(OC)cc(C(=O)N2CCCC(c3nc(-c4ccc(C)o4)no3)C2)c1 (configuration not stated),.,0.3,-6.3,.,.,
COc1ccc(CN=C2NC(=O)CC(C(=O)Nc3ccccc3C)S2)cc1 (configuration not stated),1.4,-0.8,-1.7,-3.9%,-22.2,
CC(C)(C)OC(=O)N1CCC[C@H]1C(=O)NCc1ccc(Cl)cc1Cl,-4.2,-2.7,-3.0,7.3%,.,
COc1ccc(N2CC(C(=O)OCC(=O)c3ccc(C)cc3)CC2=O)cc1 (configuration not stated),0.0,1.7,14.2,3.6%,.,
CSc1cccc(NC(=O)c2nnn(CC(=O)Nc3cc(C)cc(C)c3)c2N)c1,.,-0.6,4.0,.,.,
CC1CC(C)CN(C(=O)/C(=C\c2ccccc2)c2ccccc2)C1 (configuration not stated),-11.8,20.8,6.5,11.4%,-10.9,
C=CCNC(=O)C1CCN(C(=O)c2ccc(-c3ccccc3)cc2)CC1,0.6,.,-3.6,-2.4%,.,
Cc1ccc(S(=O)(=O)N(C)CC(=O)NCCCn2ccnc2)cc1,.,1.7,-7.3,.,.,
O=[N+]([O-])c1ccc(/C=C/c2nc3ccc([N+](=O)[O-])cc3[nH]2)cc1,2.9,3.5,-1.5,.,-23.6,
Cc1nn(CC(=O)N(C)Cc2ccccc2)c(=O)c2cccn12,.,-1.6,-3.9,.,.,
CCC(C)(C)NC(=O)CN(Cc1ccc(F)cc1)C(=O)CCC(=O)Nc1ccccn1,.,2.8,-1.0,.,.,
COc1cc(/C=C/C(=O)Nc2ccccc2C(F)(F)F)cc(OC)c1OC,-5.7,0.7,20.6,.,-25.2,

# Six compounds out of the list, arranged by number of heavy atoms, low to high:
SMILES,Arbovirus inh,RecA intein inh,Mtb betalactam,Mtb H37Rv,YopH inh,others
O=[N+]([O-])c1ccc(/C=C/c2nc3ccc([N+](=O)[O-])cc3[nH]2)cc1,2.9,3.5,-1.5,.,-23.6,
CC(C)(C)OC(=O)N1CCC[C@H]1C(=O)NCc1ccc(Cl)cc1Cl,-4.2,-2.7,-3.0,7.3%,.,
C=CCNC(=O)C1CCN(C(=O)c2ccc(-c3ccccc3)cc2)CC1,0.6,.,-3.6,-2.4%,.,
COc1ccc(N2CC(C(=O)OCC(=O)c3ccc(C)cc3)CC2=O)cc1 (configuration not stated),0.0,1.7,14.2,3.6%,.,
CSc1cccc(NC(=O)c2nnn(CC(=O)Nc3cc(C)cc(C)c3)c2N)c1,.,-0.6,4.0,.,.,
CCC(C)(C)NC(=O)CN(Cc1ccc(F)cc1)C(=O)CCC(=O)Nc1ccccn1,.,2.8,-1.0,.,.,

# This is a subset; the hit share may differ from the screen's.
